rRNA inh HTS – inhibits bacterial ribosomal RNA function over humanized ribosomes; E. coli WT GFP vs humanized-ribosome RFP mutants, fluorescence, 24 h; active compounds read low; DMSO median 0, no signal -100; GFP signal change (wild-type ribosome), % (test concentration not listed); actives 1.6% (n = 350,000); AID 720706;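 active means significant combined selectivity score with lowered wild-type GFP, culture density cut under 30%, mutant RFP and density less affected; inactive means any of these conditions unmet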; further: one replicate is shown; some compounds called inactive have numbers as strong as hits
Beta cell apopt – beta cell apoptosis inhibition; INS-1E cytokine-induced death, ATP luminescence, 48 h; percent of positive-control rescue, neutral wells zero; protection from apoptosis, % (concentration not given with the values); actives 0.8% (n = 300,000); AID 435005;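 active means all replicates at 75% or more, or half of them and the mean; inconclusive means half reach 75% but not the mean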;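 further: 0% = cytokine-treated negative control wells and 100% = positive control rescue; higher means more ATP so stronger rescue from cytokine killing; wells of about 40 µL received 100 nL stock; the first replicate is given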
FGF22 binding – binders of recombinant human FGF22 by thermal shift | AID 651658 | actives 1.5% (n = 340,000) | calls only at 9.99 µM | SYPRO orange fluorescence; percent of sucrose octasulfate shift, DMSO zero | Q9HCT0;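 active means melting point raised past a set limit in the mean and every replicate; inconclusive means no clear call; three in four hits are not shown here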
Target sequence (Q9HCT0 whole entry, looked up): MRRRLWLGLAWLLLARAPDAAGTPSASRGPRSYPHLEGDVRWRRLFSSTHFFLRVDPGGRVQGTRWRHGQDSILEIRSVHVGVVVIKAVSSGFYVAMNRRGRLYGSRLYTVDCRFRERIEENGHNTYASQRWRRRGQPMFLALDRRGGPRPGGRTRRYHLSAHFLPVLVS
T cruzi inh – T. cruzi replication inhibition. T. cruzi beta-gal in NIH3T3, luminescence, 90 h. inhibition, % (no concentration beside the values). actives 1.4% (n = 300,000). AID 1885;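 active means mean inhibition across valid replicates above about 55%, limit read from the data; inconclusive means mean below that limit but half or more replicates reach it; inactive means mean below it, under half of replicates reach it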;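 further: signal also drops with host cell toxicity which is not excluded here; 0% = plate median of DMSO wells and 100% = zero luminescence signal; higher percent means less beta-gal luminescence so fewer parasites; stock transfer was 50 nL into about 50 µL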
ALR inh – human ALR oxidase inhibition via reduced H2O2; P55789; inhibition, % (no concentration beside the values); purified ALR, DTT oxidation, H2O2 HRP-luminol luminescence; AID 485317; actives 3.8% (n = 290,000);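 active means mean and each replicate at 75% or more; inconclusive means only one of the two met; inactive means neither met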;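 further: stock transfer was 7.5 nL into about 7.5 µL; 0% = neutral wells and 100% = wells with inactivated enzyme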
Target sequence (P55789 whole entry, looked up): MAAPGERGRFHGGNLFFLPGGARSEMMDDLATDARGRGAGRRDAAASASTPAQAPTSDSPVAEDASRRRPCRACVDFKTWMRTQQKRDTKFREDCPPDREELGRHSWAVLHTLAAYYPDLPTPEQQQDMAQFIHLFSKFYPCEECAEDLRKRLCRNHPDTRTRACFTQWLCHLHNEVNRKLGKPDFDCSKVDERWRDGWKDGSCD
RanGTP-Impb inh – inhibitors of RanGTP-importin-beta interaction, primary screen, biochemical, FRET, CFP-Ran, YFP-importin-beta, homogeneous | cell-free CFP-Ran/YFP-importin-beta FRET ratio | inhibition, % (no concentration beside the values) | actives 1.1% (n = 300,000) | AID 2216;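 active means most replicates above 15%; inconclusive means exactly half above 15%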;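 further: 0% = DMSO wells and 100% = Ran loaded with GDP instead of GTP; wells of about 40 µL received 100 nL stock; the first replicate is given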
MLL AF4-AF9 inh – MLL-AF4/AF9 protein interaction inhibition; P42568; AlphaScreen, biotin-AF4 peptide binding to FLAG-AF9; inhibition, % at 10 µM; actives 0.47% (n = 350,000);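 active means every replicate reaching a set inhibition limit, whatever the replicate mean, cut at about 25% in these data; inconclusive means mean inhibition reaches that limit but some replicates miss it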;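 further: 0% = plate neutral control median and 100% = total signal loss; the record names both 10 and 1 µM as test concentration; the first replicate is given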
Target sequence (P42568 whole entry, looked up): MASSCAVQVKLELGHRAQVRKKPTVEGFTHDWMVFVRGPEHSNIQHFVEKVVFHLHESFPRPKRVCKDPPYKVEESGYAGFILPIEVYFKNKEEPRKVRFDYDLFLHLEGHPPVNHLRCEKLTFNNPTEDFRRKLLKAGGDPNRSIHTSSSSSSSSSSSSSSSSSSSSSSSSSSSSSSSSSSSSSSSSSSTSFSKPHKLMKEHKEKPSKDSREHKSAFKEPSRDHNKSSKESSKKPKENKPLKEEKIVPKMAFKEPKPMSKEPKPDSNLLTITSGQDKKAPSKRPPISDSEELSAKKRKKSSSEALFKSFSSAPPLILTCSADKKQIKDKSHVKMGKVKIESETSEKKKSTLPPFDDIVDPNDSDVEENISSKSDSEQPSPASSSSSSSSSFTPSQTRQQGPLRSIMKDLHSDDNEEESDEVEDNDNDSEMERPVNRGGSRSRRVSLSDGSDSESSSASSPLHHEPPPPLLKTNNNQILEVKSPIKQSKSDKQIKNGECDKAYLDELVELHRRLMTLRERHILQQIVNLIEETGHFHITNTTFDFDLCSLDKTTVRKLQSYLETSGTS
Calb FLC – C. albicans growth modulation with fluconazole. actives 0.57% (n = 300,000). growth inhibition, % (concentration not given with the values). C. albicans CaCi-2 (fluconazole-resistant clinical isolate) + fluconazole, Alamar Blue growth, 48 h;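 active means most replicates above 75%; inconclusive means exactly half above 75%; inactive means most below 75%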;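 further: all wells also contain fluconazole at 8 µg/ml as a sub-toxic cotreatment; 0% = median of DMSO wells and 100% = median of geldanamycin control wells; wells of about 8 µL received 7.5 nL stock; the first replicate is given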
rRNA inh HTS OD600 – also measured in rRNA inh HTS; calls as there; OD600 change, %; measured here: OD600 growth;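 optical density of the mix in the first replicate; 0 = DMSO median and -100 = no signal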
rRNA inh HTS RFP – also measured in rRNA inh HTS; calls as there; RFP signal change, %; measured here: RFP humanized mutant strains;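 first replicate; 0 = DMSO median and -100 = no signal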
* marks the source's active call; other numbers are inactive results; i = inactive; ? = inconclusive; . = not tested or not shown; & = joins results of further samples. These rows are one share of the data; count on the stated rates, not on these rows.

SMILES	rRNA inh HTS	rRNA inh HTS OD600	rRNA inh HTS RFP	Beta cell apopt	FGF22 binding	T cruzi inh	ALR inh	RanGTP-Impb inh	MLL AF4-AF9 inh	Calb FLC
CN=C1SC(CC(=O)Nc2ccccc2F)C(=O)N1/N=C/c1ccc(O)c(OC)c1 (stereo not drawn)	-1	-2	2.9	7	i	-15	22	-3.3	-22	7
FC(F)(F)c1ccccc1CN1CCC(Cc2ccccc2)CC1	-11	-5	-2.9	-3	i	-16	.	-6.8	-1.9	-8
N/C(=N\OC(=O)/C=C/c1ccccc1Cl)c1cccnc1	5	3	-1.4	3	i	-17	42	-1.3	1.9	2
Cc1nn(-c2ccccc2)c(N)c1N=Nc1ccc(Cl)cc1	-17	-8	-2.2	-2	i	-14	-3	-0.1	14	98*
COc1ccc([C@H]2CC(=O)C=C(c3cc(Cl)ccc3C)C2)cc1	-4	-10	-7.1	-3	i	.	4	.	-3.3	.
CN(C(=O)C1CCOC1)c1nnc(-c2ccccn2)s1 (stereo not drawn)	0	1	1.3	-1	.	-11	2	-0.7	.	-1
CC(C)(C)Cc1nnc(NC(=O)c2ccco2)s1	3	2	0.8	-7	i	11	.	0.6	0.4	10
CCOC(=O)c1c(CN2CCCCC2)n(C)c2ccc(OC)c(S(=O)(=O)c3ccccc3)c12	.	.	.	1	.	12	-30	-1.6	.	-5
COC(=O)CC1(C(=O)OC)Oc2ccc(Br)cc2C(=O)N1c1cccc(Cl)c1Cl (stereo not drawn)	-13	-19	-4.1	4	i	4	0	1.7	0.5	13
CCCn1c(=N)c(S(=O)(=O)c2ccccc2)cc2c(=O)n3ccccc3nc21	-2	-2	-1.5	-7	i	5	-7	198*	-1.7	2
Cc1cccc(Cc2ncc(C(F)(F)F)cc2Cl)c1	21	14	4.9	-8	i	-10	1	-2.3	-10	-1
COc1ccc(NC(=O)c2cccc(NC(=O)C(C)C)c2)c([N+](=O)[O-])c1	.	.	.	-8	.	-1	-11	0.3	.	-4
CCOC(=O)c1cnn(-c2ccc(F)cc2)c1N	19	17	6.2	2	i	-10	1	1.0	-0.2	5
CCOCCCNS(=O)(=O)c1ccc(NC(=O)C2CC(=O)N(c3ccc(C)cc3)C2)cc1 (stereo not drawn)	8	4	-7.3	-6	i	-4	-3	-0.6	-0.4	5
CCOC(=O)c1cn(CC2CC2)c2cc(F)c(F)cc2c1=O	4	3	0.5	-1	i	7	6	2.4	0.0	36
Clc1cccc(Cl)c1COc1ccccc1CNn1cnnc1	-28	-23	-5.3	-4	i	37	-4	-1.7	-3.1	15
O=C(NCc1cccs1)C1CCCN1S(=O)(=O)c1ccccc1F (stereo not drawn)	.	.	.	-1	.	0	-18	?	.	0
CCOc1ccc(S(=O)(=O)N(CC(=O)NC2CCCCC2C)Cc2ccco2)cc1 (stereo not drawn)	0	8	-2.3	9	i	6	.	-0.4	9.2	-1
COc1cccc(C(=O)Nc2ccc3c(C)cc(=O)oc3c2)c1	-1	15	-0.6	4	i	5	-18	6.5	-8.4	-8
COCc1ccc(C(=O)N2CCCC(Nc3ccc4c(c3)OCCO4)C2)o1 (stereo not drawn)	7	9	1.3	-1	i	3	99*	?	5.2	-2
CCOC(=O)C1CCN(Cc2ccc(OCc3ccccc3)cc2)CC1	8	6	3.3	2	i	8	-8	0.1	4.6	-22
COc1ccc(S(=O)(=O)n2cnc3ccccc32)cc1	0	14	0.6	-4	i	6	.	6.6	-0.7	-4
C/C=C/c1ccc(OCC(=O)N(C)CC(=O)Nc2ccc(F)cc2)c(OC)c1	1	2	3.9	-8	i	-5	-5	4.7	-0.8	-4
C[C@H](CO)N1C[C@H](C)[C@@H](CN(C)S(=O)(=O)c2ccc(F)cc2)Oc2c(NC(=O)Nc3ccc4c(c3)OCO4)cccc2C1=O	-5&-4	-11&-21	0.9&2.3	-2	i	.	-10	.	10&8.1	.
O=C(O)C1NCCc2ccccc21 (stereo not drawn)	.	.	.	-7	.	19	-10	?	.	-37

(more compounds)
SMILES	rRNA inh HTS	rRNA inh HTS OD600	rRNA inh HTS RFP	Beta cell apopt	FGF22 binding	T cruzi inh	ALR inh	RanGTP-Impb inh	MLL AF4-AF9 inh	Calb FLC
Cc1cc(C)cc(C(=O)OCC(=O)NCc2cccs2)c1	11	-4	17	2	i	7	-15	-2.8	-1.8	-24
C=CCn1c(C)cc(C(=O)COC(=O)c2cncc(Br)c2)c1C	-2	-22	8.6	-7	i	.	.	.	1.9	.
O=C(Oc1ccc2ccc(=O)oc2c1)c1ccco1	7	10	0.1	0	i	64*	3	6.3	1.9	-4
Cc1oc(-c2cccc(Cl)c2)nc1CS(=O)(=O)CC(=O)NC1CCCC1	-7	-1	-0.5	-2	i	-16	6	-0.3	-0.3	4
O=C(c1cccc(NS(=O)(=O)c2cccc([N+](=O)[O-])c2)c1)N1CCOCC1	10	9	-5.1	-4	i	-21	-4	0.5	-0.2	-4
O=c1cc(-c2ccc([N+](=O)[O-])cc2)nc2cc(-c3ccc(F)cc3)[nH]n12	.	.	.	4	i	-9	.	-2.2	-1.0	1
COc1ccc(CNC(=O)C2(CC3CC(c4ccccc4)=NO3)CCN(C(=O)C3CCCC3)CC2)cc1 (stereo not drawn)	-17	-18	-2.2	-4	i	25	-6	-3.6	2.6	2
CCOC(=O)C1=C(CC)NC2=C(C(=O)CCC2)C1c1ccc(OC)c(OC)c1 (stereo not drawn)	.	.	.	-1	.	-13	-5	5.9	.	-8
CCOc1ccccc1N(C(=O)c1ccccc1Cl)C1=NC(C)(C)CS1	-23*	-17*	-5.1*	23	i	2	-7	-0.5	1.5	-3
CC(=O)c1ccc(OC(=O)CN2C(=O)c3ccccc3C2=O)cc1	9	9	-0.4	.	i	-10	-1	-2.0	-2.4	3
COc1ccc(-c2sc3ccc(N4CCOCC4)cc3c2C#CCO)cc1	-41	-71	-16	4	i	.	6	.	9.8	.
Cn1nc(C(=O)N2CCc3ccccc3C2)c2ccccc2c1=O	.	.	.	2	.	-25	-17	0.7	.	-22
COc1ccc(NC(=O)CCS(=O)(=O)c2ccc(Cl)cc2)cc1	8	9	1.2	-1	i	-22	-2	4.7	-12	-12
Cc1ccc(CN2CCSc3ccc(C(=O)NCCCN4CCN(C)CC4)cc32)cc1	0	-6	15	5	i	25	98*	0.3	22	-3
O=C(NCC1CCCO1)c1ccc(N2C(=O)C3CCCCC3C2=O)cc1 (stereo not drawn)	1	-2	-3.5	-8	i	-8	-5	-7.2	-1.3	-2
CCOC(=O)CSc1nc2c(sc(=S)n2-c2ccccc2OC)c(=O)n1Cc1ccco1	.	.	.	2	.	2	-9	1.0	.	4
CCOc1nc(CC(C)C)c2c(c1C#N)CC(C)(C)OC2	5	5	-3.8	-15	.	7	-7	0.7	-5.7	5
CCCCC[C@H]1CN(CCCC)C(=O)[C@@H]1CC(=O)NCc1ccc(OC)cc1	-36	-72	-11	7	i	13	5	-0.7	-1.7	-2
O=C(NCc1ccncc1)C1CCN(C(=O)c2cccc(Cl)c2)CC1	4	5	0.2	-11	i	-5	-2	-2.4	-4.6	-3
CC1=C(C(=O)Nc2nc3ccccc3s2)C(c2ccco2)C(C#N)=C(SCC(=O)NC2CCCCC2)N1 (stereo not drawn)	0	10	19	16	i	17	1	1.8	3.5	3
O=C(c1ccc2c(c1)OCO2)N1CCCN(C(=O)c2ccc3c(c2)OCO3)CC1	.	.	.	1	.	5	-5	3.0	.	-13
CN(C)c1ccc(C(=O)N2CCN(C(=O)C3CCCO3)CC2)cc1 (stereo not drawn)	6	16	-1.1	-5	i	.	.	.	-2.3	.
Cn1cc(S(=O)(=O)N2CCN(c3ccccc3F)CC2)c(=O)n(C)c1=O	-1	1	-3.4	1	i	-22	.	-1.1	-5.1	-2
O=C(COc1ccc2c3c(c(=O)oc2c1)CCC3)NC1CCN(Cc2ccccc2)CC1	-29*	-20*	-4.2*	.	i	34	-3	4.2	-2.2	-4
CCOC(=O)c1cc2c(c(CSc3nc4ccccc4c(=O)n3Cc3ccco3)c1)OCOC2	11	-8	3.2	10	i	-7	5	.	3.2	5

In the list so far, 2 have bromine.
SMILES	rRNA inh HTS	rRNA inh HTS OD600	rRNA inh HTS RFP	Beta cell apopt	FGF22 binding	T cruzi inh	ALR inh	RanGTP-Impb inh	MLL AF4-AF9 inh	Calb FLC
COC(=O)CC1(C(=O)OC)Oc2ccc(Br)cc2C(=O)N1c1cccc(Cl)c1Cl (stereo not drawn)	-13	-19	-4.1	4	i	4	0	1.7	0.5	13
C=CCn1c(C)cc(C(=O)COC(=O)c2cncc(Br)c2)c1C	-2	-22	8.6	-7	i	.	.	.	1.9	.

As entered above.
Entry for `Cc1ccc(CN2CCSc3ccc(C(=O)NCCCN4CCN(C)CC4)cc32)cc1` in rRNA inh HTS: 0
Entry for `CCOc1ccccc1N(C(=O)c1ccccc1Cl)C1=NC(C)(C)CS1` in Calb FLC: -3

(next part)
SMILES	rRNA inh HTS	rRNA inh HTS OD600	rRNA inh HTS RFP	Beta cell apopt	FGF22 binding	T cruzi inh	ALR inh	RanGTP-Impb inh	MLL AF4-AF9 inh	Calb FLC
O=C(O)[C@H](Cc1ccccc1)Nc1ccc([N+](=O)[O-])cn1	10	2	4.9	-3	i	-3	-15	4.1	1.1	2
CC(C)CNC(=O)C(=O)NCC1OCCN1S(=O)(=O)c1cccs1 (stereo not drawn)	7	5	2.5	-5	i	-2	.	3.6	-7.8	22
CCOc1cc([N+](=O)[O-])cc(/C=C2/NC(=O)N(Cc3ccccc3F)C2=O)c1O	-12	-7	-9.1	4	.	40	38	4.1	7.0	-1
CCc1ccc(S(=O)(=O)NCCc2csc(-c3ccccc3)n2)s1	.	.	.	-6	.	-2	1	-2.8	.	13
O=C(NC(=S)Nc1ccc(F)cc1)c1ccc2c(c1)OCCO2	0	10	-0.1	-2	i	7	.	4.1	-3.9	-10
COC(=O)CCc1nc2cc(Cl)ccc2n(Cc2ccccc2)c1=O	10	5	1.9	2	i	8	-16	-5.0	-0.7	2
CNc1ccc(S(=O)(=O)NCC(=O)OC(C)C(=O)N(C)Cc2ccccc2)cc1[N+](=O)[O-] (stereo not drawn)	10	7	4.4	-2	i	.	-5	.	0.0	.
Cc1ccc(C(=O)CCC(=O)Nc2cccc(C(F)(F)F)c2)cc1	.	.	.	-2	.	-2	-8	1.7	.	-11
COc1ccc(CC(=O)N2CCC(n3nccc3NC(=O)C3CCOC3)CC2)cc1 (stereo not drawn)	4	8	20	-9	i	4	6	-1.0	-1.2	3
COCCN(C(=O)COC(=O)CCC(=O)c1ccc(Cl)cc1)c1c(N)n(Cc2ccccc2)c(=O)[nH]c1=O	-1	-1	3.2	-1	i	7	5	1.1	-0.7	-1
CC1=C(C(=O)OCc2ccccc2)C(c2ccc(N(C)C)cc2)NC(=O)N1 (stereo not drawn)	.	.	.	-7	.	-7	.	0.4	.	0
CC(=O)Nc1ccccc1NC(=O)C/C(C)=N/NC(=O)c1cccnc1	2	4	-1.5	-4	i	-5	52	3.3	-11	0
Cc1ccc(/C=N/Nc2nc(N3CCCCC3)nc(N3CCCCC3)n2)o1	-25	-22	-3.8	.	i	18	9	1.4	13	-37
Cc1ccc(S(=O)(=O)N(C)C)cc1NC(=O)C(C)Sc1ccccc1 (stereo not drawn)	5	-4	-2.1	-7	.	4	1	6.4	0.6	-20
